# High-throughput results from PubChem BioAssay.
# ID4 binder: binders of human ID4 protein, primary screen, biochemical, small molecule microarray, single point. DNA-binding protein inhibitor ID-4 (Homo sapiens), P47928. Flag-ID4 binding, fluorescence F/B. calls only. actives 1.2% (n = 31,000);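 active = spot signal over background at p below 0.07 in all four prints; compounds were printed on slides so no solution concentration is given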;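 also: a binder raises fluorescence above local background on the spot; about 2 pmol printed per array spot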
# Target sequence (P47928 whole entry, looked up): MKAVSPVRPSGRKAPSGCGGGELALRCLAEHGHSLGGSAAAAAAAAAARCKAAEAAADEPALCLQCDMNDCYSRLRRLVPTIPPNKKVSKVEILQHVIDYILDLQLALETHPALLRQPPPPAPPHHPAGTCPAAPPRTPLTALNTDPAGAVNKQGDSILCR
# Calls only; i = inactive; + = active, no number. A portion of the library (hit frequency here may not be typical).
structure	ID4 binder
C[C@H]1CN([C@@H](C)CO)S(=O)(=O)c2ccc(C#CC3CCCCC3)cc2O[C@@H]1CN(C)C(=O)Cc1ccncc1	i
C[C@@H]1CN([C@H](C)CO)S(=O)(=O)c2ccc(C#CC3CC3)cc2O[C@H]1CN(C)C(=O)c1cnccn1	i
O=C(CN1CCCC1)Nc1sc2c(c1C(=O)Nc1ccc(Br)cc1)CCC2	i
C[C@H](CO)N1C[C@H](C)[C@H](CN(C)C(=O)C2CC2)Oc2ncc(-c3cccc(F)c3)cc2C1=O	i
COc1cc(NC(=O)C2c3ccccc3Oc3ccccc32)c(OC)cc1NC(=O)c1ccccc1	i
CCn1c(SCC(=O)Nc2ccc(Cl)cc2Cl)nnc1-c1ccc(Cl)c(Cl)c1	i
C[C@@H]1CN([C@@H](C)CO)C(=O)c2cc(C#CC3CC3)cnc2O[C@@H]1CN(C)Cc1ccncc1	i
COc1ccc(CNCCSc2nnnn2C)cc1	i
C/C=C/c1ccc2c(c1)O[C@H](CN(C)Cc1ccc(F)cc1)[C@H](C)CN([C@H](C)CO)S2(=O)=O	i
CCOc1ccccc1-c1nc(SCC(=O)Nc2ccc(I)cc2)n[nH]1	i
O=C(CCC(=O)c1ccc(-c2ccccc2)cc1)Nc1cccnc1	i
O=C(C[C@@H]1C[C@@H]2c3cc(NC(=O)C4CCC4)ccc3O[C@@H]2[C@@H](CO)O1)NCc1ccccc1F	i
C[C@H](CO)N1C[C@H](C)[C@@H](CN(C)CC2CC2)Oc2c(NC(=O)C3CCCCC3)cccc2C1=O	i
CS(=O)(=O)N(CC(=O)Nc1cccc(Cl)c1Cl)c1cc(C(F)(F)F)ccc1Cl	i
CCc1ccc(CCC(=O)Nc2ccc3ccccc3c2)o1	i
C/C=C/c1cnc2c(c1)C(=O)N([C@@H](C)CO)C[C@@H](C)[C@@H](CN(C)C(=O)C1CC1)O2	i
O=C(NCc1nc2ccccc2[nH]1)c1c(F)c(F)c(F)c(F)c1F	i
C[C@@H]1CN([C@@H](C)CO)S(=O)(=O)c2ccc(C#Cc3cccc(F)c3)cc2O[C@H]1CN(C)C	i
COc1ccc(C#Cc2cnc3c(c2)C(=O)N([C@H](C)CO)C[C@H](C)[C@H](CN(C)C)O3)cc1OC	i
Cc1ccc(-c2csc3ncn(CC(=O)Nc4ccc(F)c(Cl)c4)c(=O)c23)cc1C	i
Cc1cccc(OCC(=O)Nc2ccc(Cl)c(-c3nc4ccc(C)cc4o3)c2)c1	i
C=CCOC(=O)[C@@H]1[C@H]2C(=O)O[C@H](c3ccccc3)[C@H](c3ccccc3)N2[C@H](c2ccc(OCCOC(=O)[C@@H]3C[C@@H]4C(=O)NCC(=O)N4[C@@H]3c3ccc(O)cc3)cc2)[C@@]12C(=O)Nc1ccc(I)cc12	i
O=C(O)CCCC(=O)Nc1ccccc1	i
CC(C)c1cn(CC[C@H]2CC[C@H](NC(=O)C3CCCC3)[C@H](CO)O2)nn1	i
Cc1ccc([N+](=O)[O-])cc1NC(=O)CSc1nnc(-c2ccncc2)n1-c1ccccc1	i
Cc1ccc(NC(=O)CSc2nc3sc(C)c(C)c3c(=O)n2-c2ccc(C)c(C)c2)cc1	i
CCC(Sc1nc2ccccc2[nH]1)C(=O)Nc1ccc(NC(C)=O)cc1 (configuration not stated)	i
O=C(c1ccc(NCc2cccnc2)c([N+](=O)[O-])c1)N1CCCCC1	i
COc1c2occc2cc2ccc(=O)oc12	i
C[C@H]1CN([C@@H](C)CO)C(=O)c2cc(C#CC3(O)CCCC3)cnc2O[C@H]1CN(C)C	i
Cn1c(CN2C(=O)CSc3ccc(C(F)(F)F)cc32)nnc1SCc1ccccc1	i
O=C(COc1ccccc1)Nc1ccc2oc(-c3cccc(Cl)c3)nc2c1	i
CC(C)(C)OC(=O)CC[C@@]12N=C(c3ccc(OCCCO)cc3)O[C@@H]1c1ccccc1CN(Cc1ccccc1)C2=O	i
C[C@@H]1CN([C@H](C)CO)C(=O)c2cc(C#C[C@@H](C)O)cnc2O[C@@H]1CN(C)Cc1cccc(F)c1	i
CO[C@@H](CN(C)C(=O)c1ccc2c(c1)OCO2)[C@@H](C)CN([C@H](C)CO)S(=O)(=O)c1ccc(C)cc1	i
C[C@H](CO)N1C[C@H](C)[C@H](CN(C)Cc2cccc(F)c2)Oc2ncc(C#C[C@@H](C)O)cc2C1=O	i
COc1ccc(N(C(C)C(=O)Nc2ccc(Br)cc2F)S(C)(=O)=O)cc1 (configuration not stated)	i
Cc1ccnc(NS(=O)(=O)c2ccc(NC(=O)c3oc4ccccc4c3C)cc2)n1	i
COc1cc(OC)c2ccc(=O)oc2c1	i
CCOC(=O)c1ccc(NC(=O)CN2C(=O)COc3ccc(Cl)cc32)cc1	i
O=[N+]([O-])c1ccc(N2CCN(S(=O)(=O)c3ccc(F)cc3)CC2)cc1NCc1ccco1	i
CCCNC(=O)N[C@H]1C=C[C@@H](CC(=O)NCCc2ccccc2)O[C@H]1CO	i
CCn1c(SCC(=O)Nc2c(Cl)cc(Cl)cc2Cl)nnc1-c1ccccc1F	i
COc1ccc(NC(=O)C(Cc2ccccc2)N2C(=O)c3ccccc3C2=O)cc1 (configuration not stated)	i
Cn1c(=O)n(C)c2cc(S(=O)(=O)NCc3ccco3)ccc21	i
O=C(CN1C(=O)CNC1=O)Nc1cccc2ccccc12	i
C[C@H]1CN([C@@H](C)CO)C(=O)c2cc(Br)cnc2O[C@@H]1CN(C)CC1CCOCC1	i
COc1ccc(NC(=O)CN(c2ccccc2F)S(C)(=O)=O)cc1Cl	i
C[C@H]1CN([C@@H](C)CO)C(=O)c2cc(C#CCC3CCCC3)cnc2O[C@@H]1CN(C)C(=O)c1cnccn1	i
CCC(=O)N(C)C[C@H]1Oc2ncc(-c3ccc(C)cc3)cc2C(=O)N([C@H](C)CO)C[C@@H]1C	i

# Following part.
structure	ID4 binder
Cc1nc(SCC(=O)Nc2cccc(F)c2)c2c(C)c(C)sc2n1	i
Cc1ccc(-c2ccc3c(c2)O[C@H](CN(C)C)[C@@H](C)CN([C@@H](C)CO)S3(=O)=O)cc1	i
Nc1ccc(C(=O)CC2(O)C(=O)Nc3ccc(F)cc32)cc1 (configuration not stated)	i
CCOC(=O)c1c(NC(=O)c2ccccc2[N+](=O)[O-])sc2c1CCCCCC2	i
O=C(NCC[C@@H]1CC[C@H](NC(=O)C2CCC2)[C@@H](CO)O1)c1cc(Cl)cc(Cl)c1	i
CCC(=O)N[C@H]1C=C[C@H](CC(=O)NCc2cc(F)cc(F)c2)O[C@H]1CO	i
C[C@H](CO)N1C[C@H](C)[C@@H](CN(C)CC2CCOCC2)Oc2ncc(C#Cc3ccccn3)cc2C1=O	i
COc1ccc(-n2c(C)nnc2SCC(=O)Nc2cccc(C(F)(F)F)c2)cc1	i
N#Cc1ccccc1NC(=O)CSc1nnc(-c2ccccc2O)n1-c1ccccc1	i
C[C@H](CO)N1C[C@H](C)[C@@H](CN(C)C)Oc2ncc(-c3ccccc3F)cc2C1=O	i
Cc1ccccc1-c1cnc2c(c1)C(=O)N([C@@H](C)CO)C[C@@H](C)[C@H](CN(C)Cc1cncnc1)O2	i
COc1ccc(S(=O)(=O)N(C)C[C@@H]2Oc3cc(C#CC4CC4)ccc3S(=O)(=O)N([C@@H](C)CO)C[C@H]2C)cc1	i
CCc1ccc(/C=C2\CN(C)C/C(=C\c3ccc(CC)cc3)C2O)cc1	i
O=C(CC1NC(=O)NC1=O)Nc1ccc(Cl)cc1 (configuration not stated)	i
Cc1ccc(NS(=O)(=O)c2cccc(C(=O)Nc3ccccc3C(=O)O)c2)cc1C	i
CC(=O)c1c(C)nn2c3ccccc3n(CCN3CCOCC3)c12	i
NC(=O)CSc1oc(-c2ccco2)nc1S(=O)(=O)c1ccccc1	i
COc1ccc(OC)c(NC(=O)COc2ccc(C(C)(C)C)cc2)c1	i
COC(=O)c1ccccc1NC(=O)COc1ccc(C)c(C)c1	i
CCC1C(=O)O[C@]23C=C[C@@H]4C(C(=O)O)=CO[C@H](OC12)[C@@H]43 (some centres not stated)	i
COCC(=O)N[C@H]1CC[C@@H](CC(=O)N2CCCCC2)O[C@@H]1CO	i
CCN(CC)CCCn1c(-c2ccc(Cl)cc2)cn2c3ccccc3nc12	i
CSc1n[nH]c(=O)c2cc(C)nn12	i
C[C@H]1CN([C@@H](C)CO)C(=O)c2cc(-c3cccc(F)c3)cnc2O[C@H]1CN(C)C(=O)Nc1cc(F)ccc1F	+
O=C(Nc1ccc(NS(=O)(=O)c2cccc(C(=O)Nc3ccc(Br)cc3)c2)cc1)c1ccccc1	i

# Exported with each value named: part of the list above.
CCC(=O)N[C@H]1C=C[C@H](CC(=O)NCc2cc(F)cc(F)c2)O[C@H]1CO
  ID4 binder: i
C[C@H](CO)N1C[C@H](C)[C@@H](CN(C)CC2CCOCC2)Oc2ncc(C#Cc3ccccn3)cc2C1=O
  ID4 binder: i
COc1ccc(-n2c(C)nnc2SCC(=O)Nc2cccc(C(F)(F)F)c2)cc1
  ID4 binder: i
N#Cc1ccccc1NC(=O)CSc1nnc(-c2ccccc2O)n1-c1ccccc1
  ID4 binder: i

# (further entries)
structure	ID4 binder
COC(=O)c1c(-c2ccc(OC)c(OC)c2)csc1NC(=O)COc1ccccc1	i
Cc1cc(NS(=O)(=O)c2ccc(NC(=O)c3oc4cc(C)c(C)cc4c3C)cc2)nc(C)n1	i
C[C@H]1CN([C@@H](C)CO)C(=O)c2cc(C#CCN(C)C)cnc2O[C@@H]1CN(C)C(=O)c1cccc(F)c1	i
CCCNC(=O)N(C)C[C@@H]1Oc2ncc(Br)cc2C(=O)N([C@H](C)CO)C[C@@H]1C	i
COc1ccccc1CN1C(=O)c2ccccc2[C@](Cc2ccccc2I)(C(=O)NCCN2CCOCC2)[C@@H]1c1ccc(CO)cc1	i
COCC#Cc1cnc2c(c1)C(=O)N([C@@H](C)CO)C[C@@H](C)[C@H](CN(C)C)O2	i
CCOC(=O)c1ccccc1NC(=O)COc1ccc(C)cc1C(C)(C)C	i
COc1ccc(C(NC(=O)c2ccccc2)c2ccc3cccnc3c2O)c(OC)c1 (configuration not stated)	i
C[C@H](CO)N1C[C@H](C)[C@@H](CN(C)C(=O)CN2CCOCC2)Oc2ncc(-c3cncnc3)cc2C1=O	i
C[C@H](CO)N1C[C@H](C)[C@H](CN(C)Cc2ccccn2)Oc2ncc(C3=CCCC3)cc2C1=O	i
Cc1cc(C)c(S(=O)(=O)N(C)CC(=O)Nc2ccc3c(c2)OCCO3)c(C)c1	i
COc1ccc(CN(C)C[C@@H]2Oc3ccc(N(C)C)cc3CC(=O)N([C@H](C)CO)C[C@H]2C)cc1	i
O=C(O)C1CCCCC1C(=O)Nc1ccc(C(=O)N2CCCCC2)c(Cl)c1 (configuration not stated)	i
C[C@H]1CN([C@@H](C)CO)S(=O)(=O)c2ccc(Br)cc2O[C@@H]1CN(C)Cc1ccccc1	i
C[C@H](NC(=O)C[C@@H]1CC[C@H](NC(=O)C2CC2)[C@@H](CO)O1)c1ccccc1	i
COc1cccc(NC(=O)C(C)N(c2ccc(C)c(C)c2)S(C)(=O)=O)c1 (configuration not stated)	i
CN(C)c1ccc2c(c1)[C@@H]1C[C@@H](CC(=O)NCCN3CCCCC3)O[C@H](CO)[C@@H]1O2	i
Cn1c(=O)c2[nH]c(NCCN3CCOCC3)nc2n(C)c1=O	+
CCOC(=O)c1nnc2c(Br)c(C)nn2c1C	i
Cc1ccccc1-c1nc(C#N)c(NCCN2CCOCC2)o1	i
COc1ccc(OC)c(C2C(C(=O)c3ccco3)C(=O)C(=O)N2CCN2CCOCC2)c1 (configuration not stated)	i
O=C(CCN1C(=O)c2ccc([N+](=O)[O-])cc2C1=O)Nc1ccccc1I	i
O=C(CCN1CCCCC1)N[C@@H]1C=C[C@H](CC(=O)N2CCC(Cc3ccccc3)CC2)O[C@@H]1CO	i
Cc1ccc([N+](=O)[O-])cc1NC(=O)CN(C)S(=O)(=O)c1ccc(Br)cc1	i
COc1ccc(-c2coc3cc(O)ccc3c2=O)c(OC)c1O	i
Cc1ccnc(SCC(=O)Nc2cccc(C(F)(F)F)c2)n1	i
CCc1cc(C)cc(OCCNC(=O)c2ncn[nH]2)c1	i
O=C(CC1(O)C(=O)N(CCc2ccccc2)c2ccc(Cl)cc21)c1ccco1 (configuration not stated)	i
COc1ccccc1NC(=O)N[C@H]1C=C[C@H](CC(=O)N[C@H](C)c2ccccc2)O[C@@H]1CO	i
COC(=O)c1ccc(NC(=O)CSc2ncnc3sc(C)c(C)c23)cc1	i
C[C@H](CO)N1C[C@H](C)[C@H](CN(C)C(=O)C2CCOCC2)Oc2ncc(-c3cccc(F)c3)cc2C1=O	i
COc1ccc(NC(=O)CN(C)S(=O)(=O)c2ccc(C)cc2)cc1OC	i
COc1ccccc1NC(=O)CSc1ccccn1	i
NC(=O)[C@H]1[C@@H]2C(=O)O[C@@H](c3ccccc3)[C@@H](c3ccccc3)N2[C@@H](c2ccc(OCCO)cc2)[C@]12C(=O)Nc1ccccc12	i
Cc1cc(C)c2c(=O)[nH]c(SCC(=O)c3cccs3)nc2n1	i

# Arranged by molecular weight (largest number first): 4 of the compounds above
structure	ID4 binder
C[C@H]1CN([C@@H](C)CO)C(=O)c2cc(C#CCC3CCCC3)cnc2O[C@@H]1CN(C)C(=O)c1cnccn1	i
O=C(CCN1CCCCC1)N[C@@H]1C=C[C@H](CC(=O)N2CCC(Cc3ccccc3)CC2)O[C@@H]1CO	i
C[C@@H]1CN([C@@H](C)CO)S(=O)(=O)c2ccc(C#Cc3cccc(F)c3)cc2O[C@H]1CN(C)C	i
CCOC(=O)c1ccc(NC(=O)CN2C(=O)COc3ccc(Cl)cc32)cc1	i
